# BJeLR lethal = MLPCN primary cell-based screen for lethality selective to Ras in HRASV12 cells | AID 1554, 2009 | inhibition, % (test concentration not listed) | BJeLR (HRASV12) viability, CellTiter-Glo ATP luminescence, 48 h; reference of the scale not given here | 300,000 compounds, 0.17% hits;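 active = replicate mean above 50%; inconclusive = above 50% but judged a plate artefact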;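 also: 50 nL library stock added to about 25 µL; numbers are from one replicate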
# Sa ugtP lethal = growth inhibition of ugtP-null S. aureus, primary screen, RN4220 ugtP deletion, OD600. 16 h; some inactives read as strong as hits. growth inhibition, % (no concentration beside the values). 330,000 compounds, 0.54% hits. AID 1259309, 2017;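 active = z-score under -3 and OD600 up to 0.15 on both plates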;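 also: plate controls were untreated wells for no effect and antibiotic for full effect; wells of about 80 µL received 100 nL stock; the first replicate is given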
# PrP UTR inh = inhibition of PrP 5' UTR reporter expression; cell-based PrP 5' UTR mRNA reporter, plate reader; inhibition, % (concentration not given with the values); 340,000 compounds, 0.35% hits; AID 488862, 2010;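 active = every replicate at 50% or more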;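 also: 0 = median of the neutral control wells; tested in H4 reporter cells; numbers are from one replicate; inactives centre near -14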
# Bead autofluor = counter-screen for toxin protease inhibitors: compound fluorescence; compound autofluorescence counterscreen, microsphere flow cytometry; active compounds read high; fluorescence intensity (test concentration not listed); 360,000 compounds, 3.1% hits; AID 624483;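 active = at least 3 SD above the mean of all compounds, about 16000 in these data; inconclusive = too few beads counted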;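 also: 100 nL of 1 mM stock went into each well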
# Mtb hypoxia rep = PubChem AID 1159583; M. tuberculosis hypoxia-regulated fluorescent reporter, fluorescence; fluorescence inhibition, % (no concentration beside the values); 300,000 compounds, 0.1% hits;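 active = 35 to 45% if threefold the growth effect, above 45% if 1.5-fold the growth effect; inactive = the rest, general growth blockers included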;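 also: wells of about 50 µL received 100 nL stock; 0% = vehicle wells and 100% = reference inhibitor wells; whole bacteria with a GFP reporter of the hypoxia response; strong numbers were not always called active; many hits fall short of the cut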
# RN4220 kill = growth inhibition of S. aureus RN4220, primary screen, OD600 | inhibition, % (no concentration beside the values) | 330,000 compounds, 0.33% hits | 16 h;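 active = z-score of -3 or lower and OD600 up to 0.18 on both plates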;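 also: plate controls were untreated cells for no effect and reference antibiotic for full effect; stock transfer was 100 nL into about 80 µL; one replicate is shown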
# Mtb hypoxia rep growth = also measured in Mtb hypoxia rep; calls as there; growth inhibition, %; measured here: M. tuberculosis growth (absorbance);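 0% = vehicle and 100% = reference antibiotic; read after six days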
# Numbers without * were called inactive; ? = inconclusive; . = no result given.
SMILES,BJeLR lethal,Sa ugtP lethal,PrP UTR inh,Bead autofluor,Mtb hypoxia rep,Mtb hypoxia rep growth,RN4220 kill
COc1ccc(C2C(C#N)=C(N)Oc3cc(C)n(CCN4CCOCC4)c(=O)c32)cc1OC (configuration not stated),2,16,-10,2466,9,3,16
Cc1cc(/C=C2\SC(=S)NC2=O)c(C)n1C,2,-10,-19,10015,1,4,16
COc1ccc(C(=O)N2CCC(C(=O)Nc3ccc4c(c3)OCO4)CC2)cc1,6,2,-34,2400,0,-5,0.3
Cc1ccc2c(cnn2C(=O)CCC(=O)NC2CCCC2)c1,3,13,-11,4970,4,-1,10
Fc1ccc(-c2nc3c(-c4ccc(F)cc4)cnn3cc2CCN2CCOCC2)cc1,13,3,-12,3217,12,-2,20
NC(=O)C1(N2CCCCC2)CCN(C(=O)CSc2nc(C(F)(F)F)cc(=O)[nH]2)CC1,1,0,-13,2185,.,.,5.6
NC(=O)C1CCN(C(=O)c2cccc(S(=O)(=O)N3CCc4ccccc4C3)c2)CC1,6,-6,8,4738,-11,-4,1.7
CN1C(=O)Cn2c1nc1ccccc12,-1,12,-3,2594,6,5,7.1
C=CCN(CC=C)C(=S)NC(=O)c1ccc(C)c(Br)c1,-6,-5,-10,2111,4,17,13
COc1ccc(OC)c(-n2c(SCC(=O)Nc3cc(C)on3)nnc2-c2c[nH]c3ccccc23)c1,5,-9,3,4702,-2,10,-15
Cc1cccc(N2CCN(CC(O)COc3ccc(Cl)cc3)CC2)c1 (configuration not stated),5,.,-64,4126,.,.,.
COc1ccc(-n2c(/C=C/c3ccc4c(c3)OCO4)nc3ccccc3c2=O)cc1,-10,1,0,2563,8,9,3.1
O=C(Nc1ccc(Cl)cc1)C1CCCN(c2cnccn2)C1 (configuration not stated),5,-2,-12,5797,3,7,13
Cc1nnsc1SC(C)C(=O)O (configuration not stated),5,4,-6,4361,1,-4,1.3
CCOc1ccc(N)c(SSc2cc(OCC)ccc2N)c1,4,38,-8,2788,6,6,1.6
N#C/C(=C/C1=C(N2CCOCC2)C(=C/c2ccc(Cl)cc2Cl)/CC1)C(=O)Nc1ccccc1F,.,-15,-25,4751,9,-2,2.5
CCCCOC(=O)Nc1cccc(C(C)=O)c1,1,11,-33,16653*,5,-2,5.9
O=C(Cc1ccccc1)NNC(=S)Nc1ccc(Cl)cc1,-1,-10,-13,7925,-2,2,5.1
Oc1c(Cl)cc(Cl)cc1C=Nc1cc(C(F)(F)F)ccc1N1CCc2ccccc2C1,20,67,-91,3951,14,16,41
Nc1c(C(=O)Nc2ccc(F)cc2)sc2nc(-c3ccco3)ccc12,0,0,-42,4062,2,11,2.4
COCCCNC(=S)NNC(=O)c1ccc2c(c1)OCO2,-2,1,-43,3606,5,7,1.8
COc1cc2c(C#CCCCO)c(-c3ccsc3)oc(=O)c2cc1OC,.,-12,-10,3402,11,2,9.4
CSCC[C@H](NC(=O)[C@@H]1Cc2ccccc2CN1)C(=O)Nc1ccc2c(c1)OCCO2,3,4,-79,5610,14,2,4.2
O=C1NC(Nc2ccccn2)(C(F)(F)F)C(=O)N1c1ccc(F)cc1 (configuration not stated),-11,3,-6,7150,5,2,3.2
COCCNc1nc(C(C)(C)C)nc2c1nnn2Cc1ccccc1Cl,3,10,-11,12170,-2,6,0.5

# 3 records picked at random from the list so far, as already listed:
SMILES,BJeLR lethal,Sa ugtP lethal,PrP UTR inh,Bead autofluor,Mtb hypoxia rep,Mtb hypoxia rep growth,RN4220 kill
Cc1ccc2c(cnn2C(=O)CCC(=O)NC2CCCC2)c1,3,13,-11,4970,4,-1,10
Cc1nnsc1SC(C)C(=O)O (configuration not stated),5,4,-6,4361,1,-4,1.3
C=CCN(CC=C)C(=S)NC(=O)c1ccc(C)c(Br)c1,-6,-5,-10,2111,4,17,13

# (further entries)
SMILES,BJeLR lethal,Sa ugtP lethal,PrP UTR inh,Bead autofluor,Mtb hypoxia rep,Mtb hypoxia rep growth,RN4220 kill
CC(=O)Nc1ccc(NC(=O)CNC(=O)COc2ccccc2)cc1,7,7,16,4835,3,1,3.1
COC(=O)c1ccc(NC(=O)C2CCCN2S(=O)(=O)c2ccc(C)cc2)cc1 (configuration not stated),1,8,-13,6270,.,.,1.7
O=C(CN1C(=O)NC2(CCc3ccccc32)C1=O)c1ccc(Br)s1 (configuration not stated),.,1,-24,4005,0,9,2.1
Cn1c(N)c(C(=O)COC(=O)CCc2c[nH]c3ccccc23)c(=O)n(C)c1=O,4,-6,-16,2685,.,.,0.2
O=C(Nc1ccc2[nH]c(=O)[nH]c2c1)c1ccc(Br)o1,-2,1,-2,5260,15,6,4.3
CCOC(=O)COn1c(=O)c(-c2ccc(OC)cc2)[n+]([O-])c2ccccc21,0,13,-30,3189,-3,3,-1.0
O=C(NCCc1ccccc1)c1ccc2c(c1)S(=O)(=O)c1cc(Cl)ccc1C2=O,.,7,-36,3523,12,8,7.3
CCCN(CCC)C(=O)Nc1cc(Cl)ccc1OC,5,1,4,5103,7,10,9.3
Cc1cc(Cl)ccc1NC(=O)/C=N/O,-4,.,-21,3723,.,.,.
COc1ccc2oc(=NO)c(C(=O)Nc3ccccc3OC)cc2c1,.,19,.,.,4,-7,22
O=C1CN(C(=O)COc2ccc(Br)cc2F)c2ccccc2N1,10,14,0,1977,4,4,8.2
Cc1cc(S(=O)(=O)N2CCN(c3ccc(F)cc3)CC2)c(C)s1,2,-9,-18,6736,7,5,-1.0
COc1c(C)cc(C(=O)C2CCCN(C(=O)c3cc(C)nc(C)n3)C2)cc1C (configuration not stated),-3,-1,-7,4679,6,7,6.8
CC(=O)Oc1cccc(C=NNC(=O)C(=O)NN=Cc2cccc(OC(C)=O)c2)c1,.,-4,.,.,4,4,-1.7
CC(=O)NC1=C(C#N)C(c2ccccc2)c2c(ccc3ccccc23)O1 (configuration not stated),-1,20,-19,2806,.,.,-0.1
Cc1ccc(NC(=O)CN(C)C(=O)c2ccc3[nH]c4c(c3c2)CC(C)CC4)cc1 (configuration not stated),.,-4,-6,4088,3,1,-5.1
CCCCCCn1c(O)c(C=Nc2c(C)n(C)n(-c3ccccc3)c2=O)c(=O)[nH]c1=O,-5,-3,-11,3060,-4,4,3.8
COCC(=O)Nc1cc(C)c2c(=O)oc3ccccc3c2n1,-1,16,-26,6015,8,-2,-1.8
O=C1NC(c2cccc(Cl)c2)Oc2ccccc21 (configuration not stated),-2,9,-18,.,8,-5,7.0
COc1ccc(OC)c(NC(=O)COC(=O)COc2c(Cl)cc(Cl)c3ccc(C)nc23)c1,-13,10,-25,5607,6,-9,3.6
CC(C)(C)N1C(=O)c2ccc(C(=O)Nc3nccs3)cc2C1=O,-5,-3,-87,5447,.,.,4.8
Cc1cccc(NC(=O)COC(=O)c2ccccc2-c2nc3ccccc3s2)c1C,3,14,-7,2320,0,-1,12
O=C(c1ccc(S(=O)(=O)N2CCCC2)cc1)N(c1ccccc1)C1C=CS(=O)(=O)C1 (configuration not stated),5,0,-10,4453,4,-3,3.0
CCn1c(C)cc2c(c1=O)C(c1ccncc1)C(C#N)=C(N)O2 (configuration not stated),-11,1,-32,4373,3,1,1.0
O=C(NN=Cc1ccco1)Nc1ccccc1,.,6,.,.,3,6,3.1

# No new results follow: an excerpt of the list.
SMILES,BJeLR lethal,Sa ugtP lethal,PrP UTR inh,Bead autofluor,Mtb hypoxia rep,Mtb hypoxia rep growth,RN4220 kill
COc1ccc2oc(=NO)c(C(=O)Nc3ccccc3OC)cc2c1,.,19,.,.,4,-7,22
O=C1CN(C(=O)COc2ccc(Br)cc2F)c2ccccc2N1,10,14,0,1977,4,4,8.2

# Continued:
SMILES,BJeLR lethal,Sa ugtP lethal,PrP UTR inh,Bead autofluor,Mtb hypoxia rep,Mtb hypoxia rep growth,RN4220 kill
O=C(COc1ccc2c(-c3ccccc3)cc(=O)oc2c1)N[C@@H](Cc1c[nH]c2ccc(O)cc12)C(=O)O,-9,5,-36,5443,.,.,6.1
CCOc1ccccc1N1CCN(C(=O)c2c(-c3c(F)cccc3Cl)noc2C)CC1,2,2,-15,5243,16,1,1.3
CCc1nc2ccc(C(=O)N(C)CC(=O)Nc3ccc(F)c(F)c3F)cc2nc1CC,.,-1,-16,5852,-11,-7,-1.7
O=C(NCCCN1CCCC1=O)c1cc(-c2cccnc2)nc2ccc(Cl)cc12,4,4,-7,4412,1,8,0.3
CC(C)CNC(=S)NC1CC2CCCC(C1)N2Cc1cccs1 (configuration not stated),8,3,-30,11183,4,0,2.4
Cc1cc(NC(=O)c2cc3n(n2)C(C(F)(F)F)CC(c2ccc(Cl)c(Cl)c2)N3)no1 (configuration not stated),-16,-18,-5,5333,-1,4,1.1
CC(=O)c1cccc(Nc2nc(-c3ccccc3)cs2)c1,2,-7,-102,3367,10,5,-22
COc1ccc(/C(O)=C2\C(=O)C(=O)N(CC3CCCO3)C2c2cc(OC)ccc2OC)cc1 (configuration not stated),-3,1,-21,9505,4,2,-2.7
CCCNC(=O)C(Cc1cccc(OC)c1)NC(=O)c1ccc(C#N)cc1 (configuration not stated),.,0,-18,3412,5,9,1.3
C=CCN(c1ccc(C(=O)NCCc2ccccc2)cc1)S(C)(=O)=O,4,8,-28,16236*,9,4,3.3
CCN(CC)CCN1C(=O)C(=O)/C(=C(/O)c2c(C)[nH]c(C(=O)OC)c2C)C1c1cccs1 (configuration not stated),0,-2,-18,5885,8,17,3.5
C=CCN(c1ccccc1)S(=O)(=O)c1cccc(C(=O)OCC(=O)NCCOC)c1,-1,2,-15,3530,0,-1,5.7
O=C(c1cccnc1)c1ncc(C(F)(F)F)cc1Cl,14,2,-29,3549,4,0,-0.9
COc1cc2c(cc1OC)C(C(C#N)=NO)=NC(C)(C)C2,.,5,.,.,11,2,3.8
O=C(Nc1ccc(Cl)cn1)c1cccc(S(=O)(=O)N2CCCCC2)c1,-14,-1,-12,3711,7,11,2.9
Cc1cc(=O)oc(C)c1C(=O)Nc1cccc(F)c1,4,10,-16,3639,8,14,3.3
C=CCc1cccc2cc(C(=O)Nc3ccc(CC(=O)O)cc3)c(=O)oc12,-1,2,3,4812,-14,4,-0.1
CC(c1cccs1)N(C)Cc1nc(CCc2ccccc2)no1 (configuration not stated),-12,11,-4,2495,-6,-26,5.1
COC(=O)NN=Cc1cn(Cc2ccccc2Cl)c2ccccc12,.,-7,.,.,4,4,1.2
O=C(N/N=C/c1cccc(F)c1)c1cc(-c2ccco2)nc2ccccc12,1,.,-67,2970,.,.,.
CCCCCCCCC(=O)N1CCN(c2cc3c(cc2F)c(=O)c(C(=O)O)cn3CC)CC1,1,62,.,3772,-2,6,36
O=C(Nc1ccc(N2CCOCC2)c(Cl)c1)C1CCCCC1,6,-4,-15,9280,2,14,3.8
O=C(c1cc(-c2ccc(F)cc2)on1)N1CCCc2ccccc21,-2,0,-33,4735,9,8,5.9
Cc1nc2ccccn2c1C(=O)NCC(C)C,1,1,-4,3389,11,4,3.4
CCCCN(C)CCCNC(=O)c1ccc2c(c1)NC(=O)C(N1CCOCC1)S2 (configuration not stated),-1,-1,-16,2885,9,2,-7.5

# Continued; the last three above are carried over.
SMILES,BJeLR lethal,Sa ugtP lethal,PrP UTR inh,Bead autofluor,Mtb hypoxia rep,Mtb hypoxia rep growth,RN4220 kill
O=C(c1cc(-c2ccc(F)cc2)on1)N1CCCc2ccccc21,-2,0,-33,4735,9,8,5.9
Cc1nc2ccccn2c1C(=O)NCC(C)C,1,1,-4,3389,11,4,3.4
CCCCN(C)CCCNC(=O)c1ccc2c(c1)NC(=O)C(N1CCOCC1)S2 (configuration not stated),-1,-1,-16,2885,9,2,-7.5
CCOC(=O)C1CCN(C(=O)Cn2nc(C)n3cccc3c2=O)CC1,2,7,-26,5326,10,0,3.7
COc1ccc(CCNC(=O)CCc2cc(OC)c(OC)c(OC)c2)cc1,-3,1,-23,3604,14,8,0.2
CC(=O)Nc1ccccc1OC(=O)N1CCOCC1,6,4,-24,6872,7,-3,2.2
CC(=O)N(CC(=O)Nc1sc(C)c(C)c1C(N)=O)Cc1ccccc1,0,2,-14,4448,-1,10,0.8
CCN1CCc2nc3ccccc3c(C(=O)Nc3ccc(F)cc3)c2C1,-2,2,-29,?,0,-10,1.7
Cc1cc(OCC[N+]2(C)CCCCC2)nc2ccccc12,2,10,5,.,-2,4,13
O=C(c1cccc(C(=O)N2CCN(c3ncccn3)CC2)c1)N1CCN(c2ncccn2)CC1,-9,-4,-12,3222,1,7,-24
O=C1Cc2ccccc2Sc2ccc(Cl)cc21,-10,54,4,6230,.,.,3.0
